Bioassay records: PubChem BioAssay, Broad Institute
Hedgehog cleavage: Hh protein inhibition, biochemical readout – plate reader, single concentration, primary screen (AID 588832) | Biochemical plate reader assay, Hedgehog inhibition; stronger effect = higher value | inhibition, % at 30.3 µM | 8,000 tested, under 10 active; in the data active = inhibition from about 57%;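 also: 0% = neutral control wells and 100% = positive control wells; cholesterol-driven self-cleavage of fly hedgehog protein by fluorescence polarization; read one hour after cholesterol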
The depositor's hits bear a star.

SMILES	Hedgehog cleavage
CCc1ccc(CNC(=O)C2CCCN(c3nn4c(=O)cc(C)nc4s3)C2)cc1 (stereo not drawn)	7
CCCCN(Cc1ccco1)C(=O)Cn1ncc2c(=O)oc3ccc(C)cc3c21	10
CC(C)n1c(NCc2cc(Cl)ccc2O)nc2ccccc21	6
CCOC(=O)N1CCC(N2CC34C=CC(O3)C(C(=O)Nc3ccc(C)cc3)C4C2=O)CC1 (stereo not drawn)	12
COc1ccc(N2C(=O)C3CCCN3C2c2cccc(OC)c2OC)cc1 (stereo not drawn)	-8
CN1C(=O)CS(=O)c2ccc(C(=O)NC3CC3)cc21 (stereo not drawn)	-4
O=C(CS(=O)(=O)c1cn(Cc2ccc(Cl)cc2)c2ccccc12)N1CCCCC1	11
CCOc1ccccc1NC(=O)C1CCN(S(=O)(=O)c2c(C)nn(C)c2C)CC1	6
Cc1ccc2c(c1)N(C(=O)CCC(=O)Nc1ccccc1Br)CC(C)O2 (stereo not drawn)	4
CC1=C(O)C(=O)C(C2=C(O)C(=O)C(C)=C(O)C2=O)=C(O)C1=O	5
CCN1C(=O)c2ccccc2S(=O)c2ccc(C(=O)NC3CC3)cc21 (stereo not drawn)	4
COc1cccc(C2c3[nH]c4ccccc4c3C[C@H]3C(=O)N(c4ccccc4C(=O)N4CCC(C(=O)O)CC4)C(=O)N23)c1 (stereo partly drawn)	5
CCCc1cc(=O)oc2c3c(cc(OCC(=O)NCc4ccncc4)c12)OC(C)(C)CC3	11
COc1ccc(OC)c(-c2nnc(NC(=O)C(C)Sc3nncn3C)s2)c1 (stereo not drawn)	4
Cn1c(C(=O)NC2CC2)cc2c(=O)n(C)c3ccccc3c21	10
COCOc1cc(O)c(C(=O)/C=C/c2ccc(OCOC)c(OCOC)c2)c(OCOC)c1	3
C1CCc2nc3c(nc2C1)CCCC3	7
Cc1ccc(S(=O)(=O)c2cn(CC(=O)Nc3ccccc3)c3ccc(F)cc3c2=O)cc1	17
NC(=O)c1c(NC(=O)c2ccccc2)sc2c1CCN(Cc1ccccc1)C2	-6
CCC(=O)OC1c2ccccc2C(=O)N1Cc1ccccc1 (stereo not drawn)	4
Nc1nonc1-n1nnc(C(=O)N/N=C/c2ccccc2F)c1CN1CCOCC1	4
COc1cccc(C2C(C(N)=O)=C(C)Nc3nc(-c4ccccc4Cl)nn32)c1 (stereo not drawn)	17
Cc1cccc(NC(=O)CN(C2=NC3CS(=O)(=O)CC3S2)c2ccccc2F)c1 (stereo not drawn)	-5
O=C(O)c1cccc2c1C(=O)N(C1CCCCC1)C2	9
CCC(=O)N=c1sc2c(OC)ccc(OC)c2n1C	3
Cc1ccc(Nc2cc(C)nc3nc(C)nn23)cc1	5
COc1ccc(-c2cc(=O)oc3cc(OCC(=O)N[C@@H](Cc4c[nH]c5ccccc45)C(=O)O)ccc23)cc1	4
O=C(Cn1ncc2c1-c1ccccc1OC2)N(Cc1ccco1)C1CCCCC1	5
CC1=C(C(=O)NCCN2CCOCC2)C2(CCC(C)CC2)OC1=O (stereo not drawn)	11
Cc1cc(C)cc(N)c1	9

Overlap with the part before: two compounds, followed by the next part.
SMILES	Hedgehog cleavage
CC1=C(C(=O)NCCN2CCOCC2)C2(CCC(C)CC2)OC1=O (stereo not drawn)	11
Cc1cc(C)cc(N)c1	9
O=c1c(O)c(-c2ccc(O)c(O)c2)oc2cc(O)ccc12	30
COc1c(O)c(=O)n2c3ccccc3c3ccnc1c32	11
O=C(Cn1ncc2c1-c1ccccc1OC2)N1CCN(Cc2ccc3c(c2)OCO3)CC1	5
COc1ccc(Cl)cc1NC(=O)c1nc2nc(C)cc(C(F)F)n2n1	2
CCCCOCCOCCOCCCC	9
N=C1/C(=C\c2ccc(OC(=O)c3ccc(F)cc3)cc2)C(=O)N=C2SC(N3CCCC3)=NN12	2
CC1CC(C)CN(c2cc(=O)n(Cc3ccc(F)cc3)c(=O)[nH]2)C1 (stereo not drawn)	4
O=C(Cn1cc2c(n1)CCCCC2)Nc1c(F)c(F)cc(F)c1F	17
CC1Cc2ccccc2N1C(=O)c1cnc2sccn2c1=O (stereo not drawn)	-1
CCn1ccc(C(=O)Nc2ccc(Cl)cn2)n1	11
CCOC(=O)Cn1cnc2c(nnn2-c2ccccc2)c1=O	9
CCc1cc(=O)oc2cc(OC(C)C(=O)NCC3CCC(C(=O)O)CC3)c(Cl)cc12 (stereo not drawn)	8
CCOC(=O)c1[nH]c(C)c(C(=O)NC(C)CC)c1C (stereo not drawn)	11
COc1ccc(CNC(=O)C(=O)NCC2OCCN2S(=O)(=O)c2cccs2)cc1 (stereo not drawn)	10
O=C1CCCc2c1cc(C(=O)NCCCN1CCOCC1)c(=O)n2-c1ccc(Cl)cc1	12
Cn1c(C(=O)N2CCN(Cc3ccc4c(c3)OCO4)CC2)cc2c(=O)n(C)c3ccccc3c21	-6
O=C(CCC(=O)N1CCOc2ccccc21)NCCCc1ccccc1	9
O=C(Nc1ccc(CN2CCOCC2)cc1)c1cc2ccccn2n1	-2
CCOC(=O)N1CCN(C(=O)C2CCN(c3nnc(-n4cccc4)s3)CC2)CC1	20
CCOc1c2ccoc2nc2c(OC)c(OC)ccc12	-2
CCN1CCN(C(=O)c2cn(CC)c3ccc(S(=O)(=O)N(C)C)cc3c2=O)CC1	24
COc1cccc(CNC(=O)CCC(=O)N2CCSc3ccccc32)c1OC	-5
Brc1cc(Br)c(Oc2cc(Br)c(Br)cc2Br)cc1Br	4
CCOc1ccc2c(c1)C(C)=CC(C)(C)N2	9
COc1ccc(CCNC(=O)C(=O)NCC2OCCN2S(=O)(=O)c2ccc(OC)c(C)c2)cc1 (stereo not drawn)	2
CCOC(=O)Cn1c(=NC(=O)CSC(C)=O)sc2ccccc21	10
Cc1c(C#N)c2ccccc2n1CC(=O)N1CCc2ccccc2C1	5
COc1ccc(-c2nc(CS(=O)CC(=O)NCc3ccc4c(c3)OCO4)c(C)o2)cc1 (stereo not drawn)	3
CCCc1cc(=O)oc2c(C)c(OCC(=O)N3CCC(C(=O)O)(c4ccccc4)CC3)ccc12	5
Cc1ccc2c(c1)N(C(=O)CCC(=O)N1CCOCC1)CC(C)O2 (stereo not drawn)	7

Entries listed so far with a COOH group, in the order listed:
SMILES	Hedgehog cleavage
COc1cccc(C2c3[nH]c4ccccc4c3C[C@H]3C(=O)N(c4ccccc4C(=O)N4CCC(C(=O)O)CC4)C(=O)N23)c1 (stereo partly drawn)	5
O=C(O)c1cccc2c1C(=O)N(C1CCCCC1)C2	9
COc1ccc(-c2cc(=O)oc3cc(OCC(=O)N[C@@H](Cc4c[nH]c5ccccc45)C(=O)O)ccc23)cc1	4
CCc1cc(=O)oc2cc(OC(C)C(=O)NCC3CCC(C(=O)O)CC3)c(Cl)cc12 (stereo not drawn)	8
CCCc1cc(=O)oc2c(C)c(OCC(=O)N3CCC(C(=O)O)(c4ccccc4)CC3)ccc12	5

Four of these compounds, set out differently.
SMILES: Cc1cccc(NC(=O)CN(C2=NC3CS(=O)(=O)CC3S2)c2ccccc2F)c1 (stereo not drawn)
  Hedgehog cleavage = -5
SMILES: O=C(O)c1cccc2c1C(=O)N(C1CCCCC1)C2
  Hedgehog cleavage = 9
SMILES: CCC(=O)N=c1sc2c(OC)ccc(OC)c2n1C
  Hedgehog cleavage = 3
SMILES: Cc1ccc(Nc2cc(C)nc3nc(C)nn23)cc1
  Hedgehog cleavage = 5

New compounds follow:
SMILES	Hedgehog cleavage
Cc1ccc2c(c1)N(C(=O)CCC(=O)Nc1ccccc1Cl)CC(C)O2 (stereo not drawn)	5
CC1CCCC(C)N1c1nnc(NC(=O)c2cc(-c3ccc(Br)cc3)on2)s1 (stereo not drawn)	4
COc1ccc(-n2c(Cc3cccn3C)nnc2SCC(=O)Nc2ccc(F)cc2)cc1	25
COc1ccc(Cl)cc1NC(=O)CCS(=O)(=O)c1cc2c(cc1C)NC(=O)CO2	-2
Cn1cc(S(=O)(=O)N2CCOCC2)cc1C(=O)NCc1ccccc1Cl	5
COc1cccc(C(c2sc3ncnn3c2O)N2CC(C)OC(C)C2)c1 (stereo not drawn)	4
C=CCN(c1ccccc1)S(=O)(=O)c1cc2c(cc1C)NC(=O)CO2	11
O=C(CCc1nc2ccccc2[nH]1)Nc1ccccc1F	6
CSCC[C@H](NC(=O)[C@@H]1Cc2c([nH]c3ccccc23)C2c3ccccc3C(=O)N21)C(=O)NCC1CCCO1 (stereo partly drawn)	-5
O=C(NCc1ccccc1Cl)c1nnc(CS(=O)(=O)c2ccccc2)o1	6
CCCCCn1c(SCCOCC)nc2c1c(=O)[nH]c(=O)n2C	-1
CCOC(=O)c1cc(-c2ccc(C)cc2)n(CC(=O)NCc2ccco2)c1C	5
COc1cccc(-c2cc(C(=O)N3CCN(S(=O)(=O)c4ccccc4)CC3)[nH]n2)c1	11
COc1c(-c2ccc(O)cc2)oc2cc(O)cc(O)c2c1=O	12
CCCCc1cc(=O)oc2cc(OCC(=O)N(CC)CC)c(Cl)cc12	-4
CCCCn1c(CN2CCN(c3ccccc3)CC2)nc2c1c(=O)n(C)c(=O)n2C	7
CCCN1CC23C=CC(O2)C(C(=O)O)C3C1=O (stereo not drawn)	15
CC1(C)C[C@@H](O)[C@]2(C)CC[C@]3(C)C(=CCC4[C@@]5(C)CC[C@H](O)[C@](C)(CO)C5CC[C@]43C)[C@@H]2C1 (stereo partly drawn)	10
CCC(=O)N1CCCc2cc(S(=O)(=O)N3CCN(c4ncccn4)CC3)ccc21	7
CCCN1CCc2nc(SCC(=O)Nc3ccc(C)c(Cl)c3)[nH]c(=O)c2C1	8
CCCc1cc(=O)oc2c(C)c(OCC(=O)N3CCC[C@@H]3C(=O)O)ccc12	0
CCOC(=O)N1CCC(N2C(=O)c3ccccc3C2=O)CC1	6
CC(=O)NCCc1cnc[nH]1	4
Cc1c(C(=O)NCCn2ccc3ccccc32)cccc1[N+](=O)[O-]	8
Cn1c(=O)oc2cc(S(=O)(=O)N3CCCC3)ccc21	2
Cc1c(CCC(=O)N2CCC[C@H]2C(=O)O)c(=O)oc2cc3oc4c(c3cc12)CCCC4	-9
COC(=O)c1ccccc1Nc1cc(C)nc2nc(C)nn12	-5
Cc1ccc(C2(COC(=O)C(C)C)CO2)c(OC(=O)C(C)C)c1 (stereo not drawn)	8
COc1cc(OC)c2c(c1)OC(c1ccc(OC)c(OC)c1)C(O)C2=O (stereo not drawn)	4
COc1ccc(N(CC(=O)N2c3ccccc3CC2C)S(=O)(=O)c2c(C)nn(C)c2C)cc1 (stereo not drawn)	4
CC1CCN(S(=O)(=O)c2ccc3[nH]c(=O)ccc3c2)CC1	17
CCOc1ccc(N2C(=O)C3C(c4ccccc4F)NN(C(=O)c4ccc(C)cc4)C3C2=O)cc1 (stereo not drawn)	11
COc1ccc2c(c1OC)c(=O)n1c3ccc(OC(C)C(=O)NCCN4CCOCC4)cc3c3ccnc2c31 (stereo not drawn)	5
Cc1oc2cc3oc(=O)c(CC(=O)NCC(=O)N[C@@H](C(=O)O)c4ccccc4)c(C)c3cc2c1C	9
O=C(Nc1ccc(F)cc1F)C1CCN(c2ncnc3c2sc2cccc(F)c23)CC1	7
COc1ccc(NC(=O)NCCN2C(=O)C3C4C=CC(C4)C3C2=O)cc1 (stereo not drawn)	4
COc1ccc(OC)c(NC(=O)c2nnn(CCc3ccccc3)c2N)c1	-20
CC1Cc2ccccc2N1C(=O)CCn1c(=O)oc2ccccc21 (stereo not drawn)	6
CN1C(C(=O)Nc2ccc(F)cc2F)=CC(c2ccco2)=NS1(=O)=O	12
CCN1CCCC1CNC(=O)c1cc2c(=O)n(C)c3ccccc3c2n1C (stereo not drawn)	17
NC(=O)C1CCN(C(=O)c2ccc(NC3=NC4CS(=O)(=O)CC4S3)cc2)CC1 (stereo not drawn)	5
O=C(CSc1nc2ccccc2nc1N1CCCCC1)N1CCN(c2ccccc2)CC1	0
COc1ccc(-c2nc(CS(=O)(=O)CC(=O)NCc3cccc(OC)c3OC)c(C)o2)cc1	10
Cc1nn(C)c(C)c1S(=O)(=O)N1CCC(C(=O)NC2CCCCCC2)CC1	4
Cc1cccc(N2CCN(C(=O)CCC(=O)N3CC(C)Oc4ccccc43)CC2)c1C (stereo not drawn)	3
Cc1ccc(CNC(=O)[C@@H](NC(=O)C2CCN(C(=O)[C@@H]3CCCN3)CC2)C(C)C)cc1	8
Cc1ccc(Cn2cc(SCC(N)=O)c3ccccc32)cc1	8
Cc1ccc2c(c1)-c1c(cnn1CC(=O)NC(C)CCc1ccco1)CO2 (stereo not drawn)	-3
Cc1[nH]c(-c2ccc3c(c2)OCO3)nc1C(=O)O	5
CCCCCc1c2c(cc(O)c1C(=O)O)OC(=O)c1c(cc(OC)cc1C(=O)CCCC)O2	5
Cc1ccc(Cl)cc1NS(=O)(=O)c1ccc2c(c1)NC(=O)C(C)C(=O)N2 (stereo not drawn)	7
O=C(/C=C/c1ccc(O)c(O)c1)OC(Cc1ccc(O)c(O)c1)C(=O)O (stereo not drawn)	7
O=C1CC(=O)Nc2cc(S(=O)(=O)Nc3ccc(F)cc3Cl)ccc2N1	19
Cn1c(=O)[nH]c(=O)c2c1nc(N1CCN(CCO)CC1)n2CCSc1nc2ccccc2s1	5
CCOC(=O)N1CCC(N2CC34C=CC(O3)C(C(=O)O)C4C2=O)CC1 (stereo not drawn)	21
CC1Cc2nc(SCC(=O)Nc3ccc4c(c3)OCO4)n(-c3ccc(F)cc3)c(=O)c2S1 (stereo not drawn)	7
COc1ccc(-c2[nH]c(-c3ccc(C)cc3)nc2SCC(=O)NC2CCCC2)cc1	6
Cc1ccccc1-n1c(=O)cc(N2CCN(C(=O)c3ccco3)CC2)[nH]c1=O	19
CC(NC(=S)NCCc1ccccc1)C(c1cccs1)N1CCN(Cc2ccccc2)CC1 (stereo not drawn)	4
C/C=C/C=C/C(=O)N1CC[C@]23c4ccccc4N[C@H]4N(C)c5cccc6c5[C@]42CCN([C@H]6C2OC2(C)C)[C@H]13 (stereo partly drawn)	3
CCOC(=O)C1CCCN(S(=O)(=O)c2cc3c(cc2Cl)NC(=O)CO3)C1 (stereo not drawn)	5
CCOC(=O)Cn1c(CN2CCOCC2)nc2c1c(=O)n(C)c(=O)n2C	3

A portion of the library; count on the stated rates, not on these rows.
